# Proteasome disasm: inhibitors of ATP-driven 26S proteasome dissociation, primary screen, biochemical, bead-based flow cytometry, GFP-tagged proteasome. inhibition of disassembly, % (test concentration not listed). actives 0.2% (n = 24,000). anti-FLAG beads, GFP-proteasome disassembly. AID 751, 2007;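 active = above 40%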;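 note: plate controls were ATP control with full disassembly for no effect and ATP-gamma-S intact proteasomes for full effect; higher percent means more bead fluorescence retained so stronger block of disassembly; stock transfer was 100 nL into about 10 µL; wells with too few beads may also be inconclusive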
# VCAM-1 up: enhancers of VCAM-1 display on endothelial cells, cell-based, plate reader, pooled HUVEC, TNFa stimulus (AID 455); HUVEC TNFa-induced VCAM-1 immunofluorescence, plate reader; numbers were filed only for top-ranked candidate wells; actives 0.2% (n = 10,000); augmentation, % at 5 µM;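 active = a compound raising TNF-alpha-driven VCAM-1 surface staining, with its hit status upheld on visual or statistical review; inactive = the rest, including hits rejected on review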;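 note: 0% = TNFa with vehicle and 100% = strongest image-checked hit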
# Starred values were filed as active, the others as inactive; i = inactive; . = no result given.
# The opening 26 compounds (preview)
canonical_smiles | Proteasome disasm | VCAM-1 up
Cc1nc2sc(C(c3cccc(F)c3)N3CCC(O)CC3)c(O)n2n1 (configuration not stated) | 1.5 | .
CC1CCc2c(sc(N)c2C(N)=O)C1 (configuration not stated) | -1.1 | i
N#CC(C(=O)CCN1C(=O)C2CC=CCC2C1=O)c1nc2ccccc2[nH]1 (configuration not stated) | 1.1 | i
COc1ccccc1NC(=O)c1cc(S(=O)(=O)N2CCC3(CC2)OCCO3)ccc1F | 1.1 | .
Nc1c(N2CCCCC2)c(=O)[nH]c(=O)n1-c1ccccc1 | -1.6 | i
O=C(NCCN1C(=O)C2C3C=CC(C3)C2C1=O)Nc1ccccn1 (configuration not stated) | -0.4 | i
O=C(CN1CCC(n2nnc3cc(F)ccc32)CC1)Nc1ccc2c(c1)CCC2 | -1.1 | i
CCOC(=O)c1[nH]nc2c1C(=O)N(CC)C2=O | -2.1 | .
Cc1nc(SCC(=O)Nc2cc(C)on2)c2c3c(sc2n1)CCCC3 | 1.2 | i
Cc1nnc2ccc(N3CCN(c4ccccn4)CC3)nn12 | -5.1 | .
CCOC(=O)N1CCN(C(=O)c2ccc3c(=O)n(-c4ccc(OC)cc4OC)c(=S)[nH]c3c2)CC1 | -0.5 | .
Cc1ccc(CCNC(=O)CS(=O)Cc2nc(-c3cccc(C)c3)oc2C)cc1 (configuration not stated) | 3.4 | .
Brc1ccc(-c2nnc3sc(CNC4CCCC4)cn23)cc1 | 0.6 | .
COc1ccc(/C(O)=C2/C(=O)C(=O)N(CCCN(C)C)C2c2ccc(Cl)cc2)cc1OC (configuration not stated) | -1.7 | i
Cc1nnc(C)n1/N=C/c1cccc(Oc2ccccc2)c1 | -0.5 | i
Cc1ccccc1NS(=O)(=O)c1cc(C(=O)N2CCCC2)ccc1C | 1.3 | i
COc1ccc(C(=O)CN2C(=O)NC3(CCCc4ccccc43)C2=O)cc1OC (configuration not stated) | -0.3 | i
CCN(CC)CCNC(=O)c1cn(CC)c2ccc(S(=O)(=O)N(C)C)cc2c1=O | -1.2 | .
Cn1c(=O)cc(SCC(=O)NCc2cccnc2)c2ccccc21 | -0.6 | i
COc1cccc(CNC(=O)c2cc3ccccn3n2)c1 | 1.8 | .
Cc1cccc(C)c1Nc1nc2ccccc2o1 | 14.8 | .
O=C(CSc1nc2c(c(=O)n1-c1ccc(F)cc1)SCC2)N1CCCC1 | -1.2 | .
COc1cc(CO)cc(Br)c1OCC(=O)O | 0.5 | .
O=C(CSc1nc2c(cnn2-c2ccc(F)cc2)c(=O)[nH]1)N1CCCc2ccccc21 | -2.4 | .
CCOC(=O)C1CCCN(c2c(NCCc3ccc(S(N)(=O)=O)cc3)c(=O)c2=O)C1 (configuration not stated) | 2.3 | .
CCOC(=O)CSc1nc2ccccc2c(=O)n1CCN1CCOCC1 | -2.0 | i

# This part in full, from the start:
canonical_smiles | Proteasome disasm | VCAM-1 up
Cc1nc2sc(C(c3cccc(F)c3)N3CCC(O)CC3)c(O)n2n1 (configuration not stated) | 1.5 | .
CC1CCc2c(sc(N)c2C(N)=O)C1 (configuration not stated) | -1.1 | i
N#CC(C(=O)CCN1C(=O)C2CC=CCC2C1=O)c1nc2ccccc2[nH]1 (configuration not stated) | 1.1 | i
COc1ccccc1NC(=O)c1cc(S(=O)(=O)N2CCC3(CC2)OCCO3)ccc1F | 1.1 | .
Nc1c(N2CCCCC2)c(=O)[nH]c(=O)n1-c1ccccc1 | -1.6 | i
O=C(NCCN1C(=O)C2C3C=CC(C3)C2C1=O)Nc1ccccn1 (configuration not stated) | -0.4 | i
O=C(CN1CCC(n2nnc3cc(F)ccc32)CC1)Nc1ccc2c(c1)CCC2 | -1.1 | i
CCOC(=O)c1[nH]nc2c1C(=O)N(CC)C2=O | -2.1 | .
Cc1nc(SCC(=O)Nc2cc(C)on2)c2c3c(sc2n1)CCCC3 | 1.2 | i
Cc1nnc2ccc(N3CCN(c4ccccn4)CC3)nn12 | -5.1 | .
CCOC(=O)N1CCN(C(=O)c2ccc3c(=O)n(-c4ccc(OC)cc4OC)c(=S)[nH]c3c2)CC1 | -0.5 | .
Cc1ccc(CCNC(=O)CS(=O)Cc2nc(-c3cccc(C)c3)oc2C)cc1 (configuration not stated) | 3.4 | .
Brc1ccc(-c2nnc3sc(CNC4CCCC4)cn23)cc1 | 0.6 | .
COc1ccc(/C(O)=C2/C(=O)C(=O)N(CCCN(C)C)C2c2ccc(Cl)cc2)cc1OC (configuration not stated) | -1.7 | i
Cc1nnc(C)n1/N=C/c1cccc(Oc2ccccc2)c1 | -0.5 | i
Cc1ccccc1NS(=O)(=O)c1cc(C(=O)N2CCCC2)ccc1C | 1.3 | i
COc1ccc(C(=O)CN2C(=O)NC3(CCCc4ccccc43)C2=O)cc1OC (configuration not stated) | -0.3 | i
CCN(CC)CCNC(=O)c1cn(CC)c2ccc(S(=O)(=O)N(C)C)cc2c1=O | -1.2 | .
Cn1c(=O)cc(SCC(=O)NCc2cccnc2)c2ccccc21 | -0.6 | i
COc1cccc(CNC(=O)c2cc3ccccn3n2)c1 | 1.8 | .
Cc1cccc(C)c1Nc1nc2ccccc2o1 | 14.8 | .
O=C(CSc1nc2c(c(=O)n1-c1ccc(F)cc1)SCC2)N1CCCC1 | -1.2 | .
COc1cc(CO)cc(Br)c1OCC(=O)O | 0.5 | .
O=C(CSc1nc2c(cnn2-c2ccc(F)cc2)c(=O)[nH]1)N1CCCc2ccccc21 | -2.4 | .
CCOC(=O)C1CCCN(c2c(NCCc3ccc(S(N)(=O)=O)cc3)c(=O)c2=O)C1 (configuration not stated) | 2.3 | .
CCOC(=O)CSc1nc2ccccc2c(=O)n1CCN1CCOCC1 | -2.0 | i
CCN(CC)c1ccc(NC(=O)CSc2nc(C)cc(=O)[nH]2)cc1 | 0.4 | .
C/C(Cl)=C/Cn1c(SCc2ccc(Cl)cc2)nc2c1c(=O)[nH]c(=O)n2C | -0.3 | i
Cc1cc(=O)oc2cc(NC(=O)CCCC(=O)O)ccc12 | -1.2 | .
CCOC(=O)N1CCN(CC(=O)Nc2cc(C)nn2-c2nc3ccccc3s2)CC1 | 1.7 | i
CC(C)CCNC(=O)[C@H](CC(C)C)NC(=O)[C@H]1O[C@@H]1C(=O)O | -0.3 | i
C=CCn1c(SCC(=O)Nc2ccc(C(=O)OC(C)C)cc2)nnc1-c1cccs1 | 2.4 | .
Cc1ccc(S(=O)(=O)NCCSc2nnnn2-c2ccc(C(N)=O)cc2)cc1 | -0.8 | i
O=C(NCC1CCCO1)NC1(C(F)(F)F)Oc2ccccc2O1 (configuration not stated) | 0.6 | .
O=C(c1ncn[nH]1)N1CCN(c2nc(-c3ccccc3)cs2)CC1 | 0.9 | i
Cn1c(=O)[nH]c(=O)c2c1nc(CN1CCN(c3ccc(F)cc3)CC1)n2CCN1CCOCC1 | 0.2 | .
CC1Cc2cc(/C(O)=C3/C(=O)C(=O)N(CCN4CCOCC4)C3c3cccc(O)c3)ccc2O1 (configuration not stated) | -0.1 | i
Cc1ccc(NC(=O)c2cc(-c3ccco3)on2)cc1C | 0.8 | .
COc1ccc(NC(C)=O)cc1NC(=O)CN1CCN(S(=O)(=O)c2ccc(C(C)C)cc2)CC1 | -0.6 | .
Cc1cc(Nc2cccc(Cl)c2C)n2ncnc2n1 | -3.3 | .
Cc1ccc(-c2nc(NC(=O)CSc3nnc(C)s3)ns2)cc1 | 0.7 | .
COC(=O)c1ccccc1S(=O)(=O)N(CCCO)Cc1cc2c(C)ccc(C)c2[nH]c1=O | 1.3 | i
CCc1cccc(NC2c3ccccc3C(=O)N2c2ccc(C)cn2)c1 (configuration not stated) | 4.6 | .
CCn1cc(C2=NOC(C(=O)Nc3c(C)nn(Cc4ccc(F)cc4)c3C)C2)c(C)n1 (configuration not stated) | -0.3 | i
COC(=O)c1cn(NC(=O)c2ccncc2)c(=O)c2ccccc12 | -0.2 | .
CCN(CCCNC(=O)CCn1c(=O)[nH]c2ccccc2c1=O)c1ccccc1 | 3.2 | .
COc1ccc(N2CCN(Cc3nc(-c4ccc(Cl)cc4Cl)no3)CC2)cc1 | -0.9 | i
CC(NC(=O)C1CCCN(S(=O)(=O)c2cnc[nH]2)C1)c1ccccc1 (configuration not stated) | -1.1 | .
O=C(c1csc2c1CCCC2)N1CCN(c2ccccc2)CC1 | 0.7 | .
COC(=O)c1ccccc1NC(=O)Nc1cc(C)cc(C)n1 | 0.1 | i
Clc1cccc(Nc2c3c(nc4ncnn24)CCC3)c1 | 0.0 | i
Cn1c(=O)cc(OCC(=O)Nc2ccccn2)c2ccccc21 | -1.1 | .
CCC(C)NC(=O)CN(c1ccc2c(c1)OCO2)S(=O)(=O)c1c(C)n[nH]c1C (configuration not stated) | 1.3 | .
O=C(NC1CCN(Cc2ccccc2)CC1)C1CCCN(c2nnc(-n3cccc3)s2)C1 (configuration not stated) | 2.8 | .
CCn1c(=O)cc(OCC(=O)NCC2CCCO2)c2ccccc21 (configuration not stated) | -0.6 | .
O=C(O)c1ccc(CSc2nc3ccccc3o2)cc1 | -0.9 | .
O=C(C1CCCO1)N(c1cccc(Cl)c1)C1C=CS(=O)(=O)C1 (configuration not stated) | 0.4 | .
CCOC(=O)n1c(=O)oc2cc(S(=O)(=O)N3CCCCC3)ccc21 | -7.4 | i
CN(Cc1ccccc1)C(=O)CNC(=O)Cn1cnc2ccccc2c1=O | -1.1 | i
COc1ccc(N2CCN(CCNC(=O)CCN3C(=O)COc4ccccc43)CC2)cc1 | 0.1 | .

# Reformatted: results already given.
O=C(CN1CCC(n2nnc3cc(F)ccc32)CC1)Nc1ccc2c(c1)CCC2
  Proteasome disasm: -1.1 | VCAM-1 up: i

CCOC(=O)c1[nH]nc2c1C(=O)N(CC)C2=O
  Proteasome disasm: -2.1 | VCAM-1 up: .

# Going on with the list:
canonical_smiles | Proteasome disasm | VCAM-1 up
CCOC(=O)C1CCN(C(=O)c2ccc(Cl)c(Cl)c2)CC1 | -0.9 | i
O=C(c1ccc(Br)o1)N1CCN=C1SCc1cccc(F)c1 | -2.1 | .
O=C1CCc2cc(S(=O)(=O)N3CCN(Cc4ccc5c(c4)OCO5)CC3)ccc2N1 | -2.8 | .
COc1cc(OC)cc(-c2cc(NC(C)=O)n[nH]2)c1 | 0.3 | .
CC(=O)c1cc2c(=O)c3cc(C)ccc3oc2nc1C | 1.2 | i
COc1ccccc1NC(=O)C(C)NS(=O)(=O)c1ccc(F)cc1 (configuration not stated) | 0.9 | i
CCN(CC)CCCn1c(=S)[nH]c2ccc(Cl)cc2c1=O | 1.2 | .
CC1CN(C(=O)CSc2ncnc3sccc23)CC(C)O1 (configuration not stated) | 4.7 | i
CC(=O)c1c(NCCc2ccccc2)cc(C)oc1=O | 0.1 | i
CNC(=O)c1cc2c(=O)n3cccc(C)c3nc2n1C | -2.3 | .
O=C(Nc1ccc(CN2CCOCC2)cc1)c1cc2ccccc2oc1=O | -1.1 | i
CCCCN(CC)CCCNC(=O)CC1Nc2ccccc2NC1=O (configuration not stated) | -1.2 | .
O=C(CC1Sc2ncnn2C1=O)Nc1ccc(Br)cc1 (configuration not stated) | -2.0 | .
Cn1c(=O)cc(SCC(=O)N2CCN(C(=O)c3ccco3)CC2)c2ccccc21 | -1.3 | .
S=C(c1cccs1)N1CCCC1 | 0.2 | i
CCOC(=O)CSc1nnc(CNC(=O)c2cccc(C)c2)n1-c1ccccc1OC | 0.8 | .
CCOC(=O)C1CCCN(C(=O)Cn2sc3nc(C)cc(C)c3c2=O)C1 (configuration not stated) | -2.0 | .
CCOC(=O)CSc1nnc(Cn2c(=O)sc3ccccc32)n1C | 1.2 | i
Cc1nc2sc(C(c3ccccc3)N3CC(C)OC(C)C3)c(O)n2n1 (configuration not stated) | 1.7 | .
COc1ccc(OC)c(NC(=O)CSc2nnc(-c3ccco3)n2-c2ccccc2)c1 | 0.9 | i
O=C(c1cnn2c(C(F)(F)F)cc(-c3ccco3)nc12)N1CCc2ccccc2C1 | -1.2 | i
C/C(=N\O)C(=O)NCc1ccccn1 | -1.2 | i
C=C(Cl)COc1ccc2c(C)cc(=O)oc2c1 | -1.0 | i
OC(CN1C2=NCCCN2c2ccccc21)c1ccc(Cl)cc1 (configuration not stated) | 1.3 | .
CCOC(=O)c1ccc(NC(=O)c2c(C)[nH]c(C(=O)OCC)c2C)cc1 | 3.2 | .
COc1ccc(N2CCN(C(=O)CCCC3=NS(=O)(=O)c4ccccc4N3)CC2)cc1 | 1.1 | .
COCCN1Cc2cccc(C(=O)Nc3ccc(S(=O)(=O)N4CCCCC4)cc3)c2C1=O | -0.8 | .
O=C(CCCCCN1C(=O)C2C3C=CC(C3)C2C1=O)Nc1nccs1 (configuration not stated) | 1.7 | .
COc1ccc(N(C(C)=O)C2C=CS(=O)(=O)C2)c(OC)c1 (configuration not stated) | -0.2 | .
CCn1c(=O)cc(OCC(=O)N2CCc3ccccc32)c2ccccc21 | -0.2 | .
CC1(C)CC(=O)C=C(NCCN2CCN(C(=O)Nc3ccccc3)CC2)C1 | -1.7 | i
COc1ccc(S(=O)(=O)n2nc(-c3cc(OC)c(OC)c(OC)c3)cc2N)cc1OC | -1.1 | .
O=C(Nc1ccccc1C(F)(F)F)N1CCCC(O)C1 (configuration not stated) | 0.3 | .

# The list is partial; the hit share may differ from the screen's.
